PK Bst – alters activity of Bacillus stearothermophilus pyruvate kinase; Potency, µM; actives 1.2% (n = 51,000); partly purified Bacillus stearothermophilus pyruvate kinase, luminescence ATP production; ribose 5-phosphate activator present at AC10; AID 361; in the data active means potency below about 11 µM; inconclusive means mostly about 12 µM to 25 µM; inactive means weaker than that;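 the screen sought inhibitors and activators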;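 further: potency means the concentration at half of the fitted maximal effect; scaled between full activation by ribose 5 phosphate and full inhibition by luteolin; about four in five hits inhibit and the cells do not say which; series up to 57 µM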
YjeE inh – displaces an ADP probe from E. coli YjeE (TsaE); P0AF67; AID 605; purified YjeE, fluorescence polarisation of a bound ADP probe; Potency, µM; actives 0.05% (n = 71,000); active = well fitted falling curve; inconclusive = weaker or top-dose-only fall, or a rising curve; inactive = flat or poorly fitted curve;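 further: top concentration of the series not given in the record; excess ADP was the control for the full effect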
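Fluorescence polarization of a BODIPY Texas Red–ADP probe (2 uM) bound to purified YjeE (10 uM) was read after 15 min room-temperature incubation with compounds. Loss of polarization marks inhibitors; ADP serves as titrated control.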
Numbers without * were called inactive; i = inactive; ? = inconclusive; / = not tested or not shown.

Sequence of screens: PK Bst, YjeE inh
1: CN1CCN(CCC(=O)Nc2ccc(OCc3ccccc3)cc2)CC1
  >57, i
2: CC(=O)c1ccccc1OC(=O)c1ccco1
  /, i
3: Cc1nn(C(=O)c2ccc3c(c2)OCO3)c(N)c1-c1ccccc1
  /, i
4: Cn1cnnc1SCC(=O)N1c2ccccc2-c2c(ssc2=S)C1(C)C
  >57, i
5: O=C(CCSCCC(=O)N1CCCC1)N1CCCC1
  >57, i
6: COCC(=O)N1CCC2(CCCN(C(=O)Nc3ccc(OC)cc3)C2)CC1
  /, i
7: COCCn1c(C)cc(C(=O)COC(=O)CCN2C(=O)c3ccccc3C2=O)c1C
  >57, i
8: c1ccc(-c2nnc(N3CCOCC3)nc2-c2ccccc2)cc1
  /, i
9: OCc1cc(CO)c(O)c(CCc2ccccc2)n1
  >57, i
10: O=C1CCCc2c1cc(C(=O)Nc1ccc(Cl)cn1)c(=O)n2-c1ccccc1
  >57, i
11: O=C1c2ccccc2C(Nc2cccc(C(F)(F)F)c2)N1Cc1ccco1 (configuration not stated)
  >57, i
12: CCN(CC)c1nc(C#N)nc(N(CC)CC)n1
  >57, i
13: COC(=O)c1ccc(C(NC(=O)OCc2ccccc2)/C(=C/[C@@H](C)C(=O)NCc2cccnc2)c2cccnc2)cc1 (some centres not stated)
  /, i
14: CCn1nnc(-c2ccccc2NS(=O)(=O)c2ccc(S(=O)(=O)N3CCCCCC3)cc2)n1
  >57, i
15: CCOCCOC(=O)c1cccc(NC(=O)OCC)c1
  /, i
16: O=C1OC(Nc2ccc(F)cc2F)c2ccccc21 (configuration not stated)
  >57, i
17: COc1cc2[nH]c(=O)n(CCCCCC(=O)N3CCN(c4ccccn4)CC3)c(=O)c2cc1OC
  >57, i
18: CCOC(=O)c1ccccc1NC1CC(=O)N(c2ccccc2C)C1=O (configuration not stated)
  >57, i
19: O=C(CSc1nnc(-c2ccccc2)o1)Nn1cnnc1
  >57, i
20: CNCC[C@@H](Oc1ccccc1C)c1ccccc1
  /, i

Later entries
Sequence of screens: PK Bst, YjeE inh
21: COc1cc2ccc(=O)oc2c(O)c1OCC=C(C)C
  >57, i
22: COc1ccc(C)cc1NC(=O)CN(C)S(=O)(=O)c1cccs1
  >57, i
23: N#Cc1ccc(NC(=O)N2CCC(c3nc4c(nnn4Cc4cccc(Cl)c4)c(=O)[nH]3)CC2)cc1
  /, i
24: COc1ccc(C(=O)NC2(C(F)(F)F)N=C3SCCN3C2=O)cc1 (configuration not stated)
  >57, i
25: Cc1ccc2c(c1)NC(=O)C(CC(=O)Nc1ccc(CN3CCC(C)CC3)cc1)O2 (configuration not stated)
  /, i
26: COCCN(C(=O)C(F)(F)F)C(C(=O)NC1CCCCC1)c1ccco1 (configuration not stated)
  >57, i
27: CCOc1ccc(-n2c(SCC(=O)NCc3ccco3)nc3c([nH]c4ccccc43)c2=O)cc1
  >57, i
28: O=C(CNS(=O)(=O)c1ccc(F)cc1)N1CCN(c2ccccc2)CC1
  >57, i
29: COC(=O)c1ccccc1NC(=O)CN1CCC(NC(=O)c2ccc(C)cc2)CC1
  >57, i
30: CCCCCCCC/C=C\CCCCCCCC(N)=O
  /, i
31: CN(Cc1ccco1)c1ncncc1-c1cccc(C#N)c1
  /, i
32: Cc1noc(C)c1CSc1nnc2scc(-c3ccccc3)n12
  >57, i
33: C[N+](C)(C)CC(=O)O
  /, i
34: CCOC(=O)c1c(C)[nH]c(C(=O)COC(=O)c2ccc(N3CCCC3=O)cc2)c1C
  >57, i
35: O=C(OCC(=O)N1CCCc2ccccc21)c1ccc(Br)o1
  i, i
36: COc1ccccc1N1CCN(CC(=O)Nc2ccc(C)c(F)c2)CC1
  >57, i
37: CNC(=O)CSc1nnc(CCc2ccccc2)n1-c1ccccc1
  >57, i
38: CCn1nc(C)c(NC(=O)CSc2nnc(-c3ccco3)n2C)c1C
  >57, i
39: Cc1cnc(CNc2nc(-c3ccc4c(c3)OCO4)nc3ccccc23)cn1
  /, i
40: CCCNCC(O)COc1ccccc1C(=O)CCc1ccccc1 (configuration not stated)
  >11, /

The listing continues.
Sequence of screens: PK Bst, YjeE inh
41: Nc1ncnc2oc(-c3ccco3)c(-c3ccco3)c12
  /, 100µM*
42: CC(=O)OC(Cn1ccnc1)c1ccccc1 (configuration not stated)
  >57, i
43: O=C(CS(=O)(=O)Cc1ccccc1)N1CCc2ccccc21
  >57, i
44: COc1ccc(C(OC(=O)c2ccco2)C(=O)NC2CCCCC2)cc1OC (configuration not stated)
  >57, i
45: Cc1nc(SCc2c(F)cccc2Cl)n[nH]1
  /, i
46: c1c[nH]c(CN2CCN(Cc3ncc[nH]3)CC2)n1
  /, i
47: CC(C)(C)c1ccc(CN2CCN([C@H](c3ccccc3)c3ccc(Cl)cc3)CC2)cc1
  /, i
48: O=C(NCC1CCCO1)Nc1cccc(Cl)c1 (configuration not stated)
  >57, i
49: COc1cccc(C(=O)N(Cc2ccc3c(c2)OCO3)Cc2nc3ccccc3c(=O)[nH]2)c1
  i, i
50: O=C(CCNC(=O)Cn1ccc2ccccc2c1=O)NCCN1CCc2ccccc2C1
  >57, i
51: Cn1cc(Cl)c(C(=O)NC2CCCC2)n1
  /, i
52: CN1CCN(CCCN2c3ccccc3Sc3ccc(Cl)cc32)CC1
  >26, i
53: COC(=O)C(C)Sc1nnc(Cc2cc(=O)[nH]c(=O)[nH]2)n1-c1ccc(OC)cc1 (configuration not stated)
  /, i
54: CC1CC(C)CN(CCCNC(=O)CC2Oc3ccccc3NC2=O)C1 (configuration not stated)
  /, i
55: CC(Oc1ccccc1)C(=O)Nc1ccc(C(N)=O)cc1 (configuration not stated)
  >57, i
56: COc1cccc(C2=NOC(C(=O)NCc3ccccn3)C2)c1 (configuration not stated)
  >57, i
57: COc1ccc(OC)c(S(=O)(=O)Nc2cc(OC)c(Cl)cc2OC)c1
  >57, i
58: COC(=O)c1cccc(N(C(=O)CNC(=O)c2ccco2)C(C(=O)NC2CCCC2)c2ccco2)c1 (configuration not stated)
  >57, i
59: COCCCNC(=O)CN(Cc1ccc(Cl)cc1)S(C)(=O)=O
  >57, i
60: COc1ccccc1NC(=O)CC(NCc1ccccc1)C(=O)O (configuration not stated)
  >57, i

(list continues)
Sequence of screens: PK Bst, YjeE inh
61: COc1cc(NC(=O)COc2ccc(-n3cnnn3)cc2)c(OC)cc1Cl
  /, i
62: Cc1ccc2nc(N3CCN(C(=O)c4cccs4)CC3)c(C#N)cc2c1
  /, i
63: COc1cc(C2=NOC(C(=O)NCc3ccco3)C2)cc(OC)c1OC (configuration not stated)
  >57, i
64: Cc1nn(-c2ccccc2)c2sc(C(=O)N(CC(=O)NC(C)(C)C)Cc3ccco3)cc12
  /, i
65: CCCCOC(=O)CSc1nnc(N)s1
  /, i
66: Cc1ccc(S(=O)(=O)c2c(C)nn(C(C)(C)C)c2OC(=O)c2cccs2)cc1
  >57, i
67: CCOC(=O)N1CCN(S(=O)(=O)c2ccc(OC)c3ccccc23)CC1
  ?, i
68: COc1ccccc1C(=O)Nc1ccc2c(c1)OCO2
  /, i
69: CCOC(=O)Cc1c(C)c2c(O)cc(O)cc2oc1=O
  >57, i
70: c1ccc(Nc2ccccc2)cc1
  /, i
71: COC(=O)CSc1nc2ccc(NC(=O)CSc3nnnn3Cc3ccccc3)cc2s1
  /, i
72: CC1(C(=O)CSc2ncn[nH]2)CCC(=O)O1 (configuration not stated)
  >26, /
73: CC(=O)Nc1ccc(S(=O)(=O)n2nc(C)cc2C)cc1
  >57, i
74: COc1ccccc1NC(=O)Cc1noc(CN(C)Cc2cccs2)n1
  >57, i
75: CCOC(=O)N1CCC(NC(=O)CCC(=O)N2CCOc3ccc(C)cc32)CC1
  >57, i
76: Cn1c(=O)cc(OCCCC(=O)NCCN2CCN(c3ccccc3F)CC2)c2ccccc21
  /, i
77: CCOC(=O)c1c(C)[nH]c(C(=O)COC(=O)c2ccc(F)c(S(=O)(=O)N3CCOCC3)c2)c1C
  >57, i
78: Cn1nc(-c2ccc(Cl)cc2)c2cc(C(=O)N3CCN(c4ccccc4)CC3)sc21
  /, i
79: C=CCSc1nnc(-c2ccccc2NC(C)=O)c(=O)[nH]1
  >57, i
80: CC(C)C[C@@H](CC(=O)N[C@@H](CCCN)CC(=O)N[C@@H]1CCCC[C@H]1C(=O)N[C@H](CC(=O)N[C@@H](CCC(=O)O)CC(=O)O)CC(C)C)NC(=O)[C@@H]1CCCC[C@H]1N
  /, i

Filtered by structure, the entries above with a CF3 group (three)
Sequence of screens: PK Bst, YjeE inh
11: O=C1c2ccccc2C(Nc2cccc(C(F)(F)F)c2)N1Cc1ccco1 (configuration not stated)
  >57, i
24: COc1ccc(C(=O)NC2(C(F)(F)F)N=C3SCCN3C2=O)cc1 (configuration not stated)
  >57, i
26: COCCN(C(=O)C(F)(F)F)C(C(=O)NC1CCCCC1)c1ccco1 (configuration not stated)
  >57, i

(cont.)
Sequence of screens: PK Bst, YjeE inh
81: Cc1ccc(S(=O)(=O)N2CCN(C(=O)CSc3nnnn3C)C2)cc1
  >57, i
82: CCc1ccc(NC(=O)Nc2cccs2)cc1
  4.8*, i
83: Cc1cccc(N2CCCn3c2nc2c3c(=O)n(CC(=O)OCc3ccccc3)c(=O)n2C)c1
  >57, i
84: Cc1ccc(-c2nnc(N(C)C(=O)C3CCCO3)s2)cn1 (configuration not stated)
  >57, i
85: CCOC(=O)N1CCN(C(=O)c2nc3ccccc3s2)CC1
  >57, i
86: CCN(CC)CCCNC(=O)Cn1cc2c(n1)CCC(C)C2 (configuration not stated)
  /, i
87: CC1(C)C(=O)Nc2ccccc2N1C(=O)CN1C(=O)c2ccccc2C1=O
  >57, i
88: Cc1ccc(S(=O)(=O)NCC(=O)N(CCc2ccccc2)CC(=O)NCc2ccco2)cc1
  >57, i
89: COc1cccc(OC)c1C(=O)Nc1ccc(S(=O)(=O)Nc2cc(C)nc(C)n2)cc1
  >57, i
90: COc1ccccc1-c1cc(N)n[nH]1
  >57, i
91: Cc1ccc(S(=O)(=O)N2CCC(C(=O)N[C@@H](C)C(=O)Nc3ccc4c(c3)OCO4)CC2)cc1
  >57, i
92: CC(=O)Nc1nc(CC(=O)c2ccccc2)cs1
  /, i
93: CN(C)c1ccc(C(=O)c2ccccc2C(=O)O)c(O)c1
  >57, i
94: Brc1ccc(CSc2ncn[nH]2)cc1
  /, i
95: COc1ccccc1C(=O)Nc1ncc2c(n1)CC(c1ccco1)CC2=O (configuration not stated)
  >57, i
96: COc1cc(SC)ccc1C(=O)Nc1ccon1
  ?, i
97: CCNC(=O)c1ccccc1NC(=O)c1cccc(S(=O)(=O)N2CCC(C)CC2)c1
  >57, i
98: Cc1cc(-n2c(SCC(=O)NCc3cccs3)nc3n[nH]c(C)c3c2=N)ccc1Cl
  >57, i
99: COc1ccc(Br)cc1C(=O)O
  >57, i
100: O=C1NC(=O)C(c2cn(-c3ccccc3)nc2-c2ccc(F)cc2)N1 (configuration not stated)
  >26, /

Five structures from above, sorted by number of heavy atoms, smallest number first.
Sequence of screens: PK Bst, YjeE inh
92: CC(=O)Nc1nc(CC(=O)c2ccccc2)cs1
  /, i
84: Cc1ccc(-c2nnc(N(C)C(=O)C3CCCO3)s2)cn1 (configuration not stated)
  >57, i
85: CCOC(=O)N1CCN(C(=O)c2nc3ccccc3s2)CC1
  >57, i
100: O=C1NC(=O)C(c2cn(-c3ccccc3)nc2-c2ccc(F)cc2)N1 (configuration not stated)
  >26, /
88: Cc1ccc(S(=O)(=O)NCC(=O)N(CCc2ccccc2)CC(=O)NCc2ccco2)cc1
  >57, i

Next part:
Sequence of screens: PK Bst, YjeE inh
101: O=C(NCc1cccnc1)c1ccc(=O)oc1
  >26, /
102: Cc1ccc(Cn2c(=O)c3c(nc4n3CCCN4Cc3ccccc3)n(C)c2=O)cc1
  >57, i
103: O=C(Nc1ccccc1)N1CCCC2(CCN(C(=O)c3ccco3)CC2)C1
  /, i
104: COc1ccc(-n2nc3c(c2NC(=O)C2CC2)CS(=O)C3)cc1 (configuration not stated)
  >57, i
105: CC1OC(Nc2cccc3ccccc23)C(O)C(O)C1O (configuration not stated)
  /, i
106: Cc1cccc(-c2noc(CN(C(=O)CCc3ccccc3)C(C)C)n2)c1
  >57, i
107: CS(=O)(=O)N1CCC(c2noc(-c3ccc(C(F)(F)F)cc3)n2)CC1
  >57, i
108: Cc1noc(C)c1-c1ccc2ncnc(Nc3ccccc3)c2c1
  /, i
109: O=C(NCCc1cn2ccsc2n1)c1cccs1
  /, i
110: CCCS(=O)(=O)NCc1ccc2c(c1)cc(C)n2C
  >57, i
111: CN(Cc1nc(-c2cccnc2)no1)S(=O)(=O)c1ccccc1
  >57, i
112: CN(C)c1ccc(/C=[N+](\[O-])C(C)(C)/C=N/O)cc1
  /, i
113: O=C(Cn1ccc2ccccc2c1=O)N1CCN(Cc2ccc3c(c2)OCO3)CC1
  >57, i
114: Cc1ccc2c(CC(=O)Nc3nc(C)cs3)coc2c1
  >11, i
115: CC12CCCCN1CCCc1c2[nH]c2ccccc12 (configuration not stated)
  >57, i
116: CC12CCC(C(=O)O)(c3nc(C#N)c(C#N)nc31)C2(C)C (configuration not stated)
  >57, i
117: Cc1nn2cc(-c3ccccc3)nc2s1
  ?, i
118: COc1cccc(NC(=O)CSc2nccn2-c2cccc(OC)c2)c1
  >57, i
119: CCOC(=O)c1[nH]c2ccc(OC)cc2c1NC(=O)CCN1CCC(C)CC1
  >26, /
120: Cc1nnc(SCCC#N)n(CCC#N)c1=O
  >26, /
121: CC(C)NC(=O)N1CCC2(CC1)CCN(C(=O)c1cc(C(F)(F)F)cc(C(F)(F)F)c1)CC2
  /, i
122: COCC(C)n1c(C)cc(C(=O)Cn2c(=O)oc3ccccc32)c1C (configuration not stated)
  >57, i
123: Cc1cc(=O)oc2cc(OCC3CC(c4ccc(N(C)C)cc4)=NO3)ccc12 (configuration not stated)
  >57, i

Bioassay records as filed in PubChem BioAssay.

This is a subset, so the mix of outcomes need not match the whole.
